TRPV1 PAM = HTS Assay for Compounds that Act as Potentiators of the Vanilloid Receptor 1; Transient receptor potential cation channel subfamily V member 1 (Homo sapiens), Q8NER1; TRPV1-expressing cells, Fluo-8 calcium influx, capsaicin EC20 potentiation; host cell line not named in the record; control for the full effect not named in the record; potentiation, % at 8.33 µM; hit rate 0.02% among 320,000; AID 540277, 2011; active means potentiation above 80%; inconclusive means 30% to 80%; inactive means below 30%; also: 0% is about no effect
Target sequence (Q8NER1 whole entry, looked up): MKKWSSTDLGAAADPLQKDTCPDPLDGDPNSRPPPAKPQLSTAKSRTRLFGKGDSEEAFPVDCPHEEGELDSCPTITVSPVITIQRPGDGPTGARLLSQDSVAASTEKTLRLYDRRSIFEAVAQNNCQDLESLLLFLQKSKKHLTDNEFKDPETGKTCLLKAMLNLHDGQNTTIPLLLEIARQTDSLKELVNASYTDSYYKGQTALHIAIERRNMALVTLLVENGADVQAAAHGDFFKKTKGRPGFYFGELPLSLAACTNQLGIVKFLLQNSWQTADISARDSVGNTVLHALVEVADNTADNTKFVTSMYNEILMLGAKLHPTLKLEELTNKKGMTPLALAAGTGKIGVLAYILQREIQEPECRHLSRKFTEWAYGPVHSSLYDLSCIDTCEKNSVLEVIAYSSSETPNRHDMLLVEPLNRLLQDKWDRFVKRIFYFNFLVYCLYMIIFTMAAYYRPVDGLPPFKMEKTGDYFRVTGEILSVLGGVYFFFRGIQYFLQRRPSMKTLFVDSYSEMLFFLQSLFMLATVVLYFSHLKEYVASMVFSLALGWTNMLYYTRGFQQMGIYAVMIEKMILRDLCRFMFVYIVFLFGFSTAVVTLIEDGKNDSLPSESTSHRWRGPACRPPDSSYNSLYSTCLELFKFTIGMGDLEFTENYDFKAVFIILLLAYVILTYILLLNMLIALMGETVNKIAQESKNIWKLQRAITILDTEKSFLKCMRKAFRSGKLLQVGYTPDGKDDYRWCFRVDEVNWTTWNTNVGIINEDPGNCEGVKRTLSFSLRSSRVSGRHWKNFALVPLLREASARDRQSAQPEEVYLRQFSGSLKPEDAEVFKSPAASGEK
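Cells expressing TRPV1 were dye-loaded with Fluo-8 and read kinetically: 10 s baseline, 3 min after compound (agonist portion), then 2 min after EC20 capsaicin (allosteric enhancer portion). Calcium-bound dye fluorescence at 480/520 nm.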
ClpP mod = qHTS Assay for Activators of ClpP; ATP-dependent Clp protease proteolytic subunit (Bacillus subtilis (strain 168)), P80244; Potency, µM (highest dose often 57.5 µM), inactives show at the top dose activity change, negative = active; purified B. subtilis ClpP, FRET peptide cleavage, 20 min; hit rate 1.9% among 340,000; active = well fitted falling curve with a large enough effect; inconclusive = small, poorly fitted or top-dose-only effect; inactive = no such curve, though single readings can be large or run the other way; also: potency is read from the fitted curve at half-maximal effect; the source files actives as falling curves though it sought activators and does not explain the sign; nearly all actives have a fitted effect of over 65% in size; many hits overshoot -100%
Target sequence (P80244 whole entry, looked up): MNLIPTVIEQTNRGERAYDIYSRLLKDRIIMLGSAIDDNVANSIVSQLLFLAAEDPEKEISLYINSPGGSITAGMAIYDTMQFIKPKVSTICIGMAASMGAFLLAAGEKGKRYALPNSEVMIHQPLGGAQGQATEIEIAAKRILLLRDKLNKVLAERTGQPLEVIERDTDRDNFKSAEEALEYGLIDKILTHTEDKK
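ClpP 10 microg/mL final, pH 8 Tris/KCl buffer with BSA, glycerol, Tween-20; compound pinned in; FRET-FV substrate; RT 20 min; Ex320/Em430; ΔFRET vs ADEP 5.8 microM, DMSO, no enzyme.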
gsp antag = qHTS for Antagonists of gsp, the Etiologic Mutation Responsible for Fibrous Dysplasia/McCune-Albright Syndrome: qHTS. hit rate 0.4% among 340,000. AID 624288, 2012. gsp-mutant cells, cAMP HTRF, 30 min; control for the full effect not named in the record. Potency, µM (series often up to 76.9 µM), for the others: at the top dose activity change, negative = inhibition, most hits filed as inhibitors; active = falling curve of any shape with a large fitted effect; inconclusive = falling curve, mostly with a smaller effect; inactive = flat or rising curve; cell line not stated here;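 also: intracellular cAMP measured with PDE inhibitor Ro 20-1724 present during compound exposure; potency is read from the fitted curve at half-maximal effect; % is scaled to controls: 0 for no effect and ±100 for the full control effect; nearly all actives have a fitted effect of over 65% in size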
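Cells, 2000/well, grown 16–24 h in DMEM 10% FBS with 0.5 mg/ml G418, then compounds plus […] (300 uM addition stock), 30 min at 37C. cAMP read by HTRF (cAMP-d2 and anti-cAMP antibody-K in lysis buffer) after 30 min RT.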
CtBP-E1A blk = qHTS Assay for Inhibitors of the CtBP/E1A Interaction; AlphaScreen GST-E1A/His-CtBP binding, 1536-well; active compounds read low; control for the full effect not named in the record; activity change, % (test concentration not listed); hit rate 0.49% among 340,000; in the data active means activity change below about -65%; inconclusive means about -30% to -65%; inactive means above about -30%; also: % is scaled to controls: 0 for no effect and ±100 for the full control effect
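Protein mix (5X: 125 nM each GST-E1A, His-CtBP) was incubated with pinned compound 2 h at 37 deg C in dark, in 50 mM Tris pH 8.0 buffer with 300 mM NaCl. Glutathione donor and nickel acceptor beads followed; AlphaScreen signal read after 1 h.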
Menin MLL FP FL = qHTS Assay for Inhibitors Targeting the Menin-MLL Interaction in MLL Related Leukemias: Competition With Fluorescein Labeled MLL-derived Peptide; Fluorescence polarization, fluorescein-MLL peptide displacement from menin; FP activity change, % at 61.4 µM; 290,000 tested, under 10 active; AID 1766, 2009; inconclusive = falling polarisation curve, or a change in total fluorescence; inactive = total fluorescence flat and polarisation flat or rising; no compound was filed as active; the % refers to the polarisation; negative = inhibition;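 also: % of control where 0% means no effect; inhibitors lower the polarisation; unlabelled MLL peptide was the positive control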
Sfp PPTase inh = qHTS Assay for Inhibitors of Bacillus subtilis Sfp phosphopantetheinyl transferase (PPTase) | Potency, µM, inactives show max response, negative = inhibition, actives largely listed as inhibitors | AID 1490, 2009 | Biochemical Sfp PPTase activity, qHTS | hit rate 3.5% among 310,000; active = well fitted inhibition curve with a large enough effect; inconclusive = small, poorly fitted or top-dose-only effect, or another doubt; inactive = no such curve, though single readings can be large or run the other way;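 also: the enzyme is Sfp with the accession as filed and its product quenches rhodamine fluorescence; potency is read from the fitted curve at half-maximal effect; 0% = enzyme reaction without inhibitor and -100% = no enzyme wells; top concentration of the series not given in the record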
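Reaction rates are the 30-min fluorescence difference (ex 525, em 598 nm) in wells containing 15 nM Sfp, 5 uM rhodamine-CoA and 12.5 uM BHQ-2-YbbR at pH 7.6 with 10 mM MgCl2.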
gsp agonist = qHTS for Agonist of gsp, the Etiologic Mutation Responsible for Fibrous Dysplasia/McCune-Albright Syndrome: qHTS; gsp mutant cells, cAMP HTRF, 30 min; control for the full effect not named in the record; Potency, µM (titrated, usually from 76.9 µM), without a hit: at the top dose activation (cAMP increase), usual class: activators; hit rate 0.13% among 340,000; AID 624287, 2012; active = well fitted activation curve with a large enough effect; inconclusive = small, poorly fitted or top-dose-only effect, or another doubt; inactive = no such curve, though single readings can be large or run the other way; cell line not stated here;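 also: phosphodiesterase inhibitor Ro 20-1724 added with compounds to block cAMP breakdown; potency is read from the fitted curve at half-maximal effect; nearly all actives have a fitted effect of over 60% in size; about a fifth of the inactives were tested at one dose only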
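Cells in DMEM/10% FBS with G418 were pretreated with compounds in DMSO plus […] (300 uM stock) for 30 min at 37C. cAMP was measured by HTRF (cAMP-d2 plus anti-cAMP antibody-K) after 30 min at room temperature.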
* = called active by the depositor; ? = inconclusive; . = not tested or not shown; [ ] = remark or other dose. Compounds were not picked by outcome; overall some 5.3% were active at least once.

SMILES,gsp agonist,CtBP-E1A blk,ClpP mod,gsp antag,Sfp PPTase inh,Menin MLL FP FL,TRPV1 PAM
O=C(CSc1nnnn1-c1ccc2c(c1)CCC2)NCc1cccs1,17%,-14,-0.7%,-19%,4%,1.8,-14
O=C(CSc1nc(-c2ccco2)cc(C(F)(F)F)n1)NCC1CCCO1 (configuration not stated),-8%,2,?,5%,11%,-1.0,-11
N#C/C(=C(/O)c1ccc(Cl)cc1)c1nc2ccccc2[nH]1,-1%,6,.,3%,13%,2.9,24
Cc1ccc(CN2CCN(Cc3cn(C)nc3C)CC2CCO)o1 (configuration not stated),-29%,.,-0.6%,2%,14%,-2.0,2
O=C(CSc1nc(C2CC2)n(-c2ccccc2)n1)NCc1ccco1,-22%,.,-0.1%,4%,.,.,-7
CC(/C=C\C=C\c1ccccc1)=N\NC(=O)c1cncc(Br)c1,-2%[15.4 µM],1,.,-14%,-30%,5.9,-2
COc1ccccc1-n1cc(CN2CCN(CC(C)C)C(CCO)C2)cn1 (configuration not stated),8%,5,.,10%,24%,-0.8,-3
Nc1ncnc2c1ncn2CCOc1ccccc1,11%,-6,-2.5%,14%,-1%,-1.3,-1
CCOc1ccc(NCCC(O)c2ccc(F)cc2)cc1 (configuration not stated),14%[15.4 µM],-11,-1.9%,12%,-2%,-12,-2
COc1ccc(NC(=O)C2CCCN(c3nccc(C)n3)C2)cc1 (configuration not stated),-36%[inhibitor],-3,-6.0%,1%,18%,-0.7,22
Cc1ccc(-c2onc3ccc(C=O)cc23)cc1,-8%,7,?,7%,-24%,?,-14
O=C(CNC(=O)c1ccccc1Br)N/N=C/c1cc(Br)ccc1O,6%,-73*,-28%,-8%,18%,4.9,24
Cc1ccccc1NC(=O)C1CCN(S(=O)(=O)c2cccs2)CC1,11%[15.4 µM],-7,.,-26%,13%,1.4,-6
Cc1cnc(NC(=O)C2CC=CCC2)s1 (configuration not stated),-10%[15.4 µM],-7,.,6%,2%,0.3,-2
N#CCC(=O)NC1CCC(CC2CCC(NC(=O)CC#N)CC2)CC1 (configuration not stated),-1%,-1,-2.4%,6%,-5%,4.5,-10
CC1Cc2ccccc2N1C(=O)COC(=O)Cn1nnc(-c2ccccc2)n1 (configuration not stated),-18%,-3,3.2%,-7%,18%,-6.8,-20
C=CCOc1c2ccc(C(=O)NC3CCCc4ccccc43)cc2nn1C (configuration not stated),.,1,-22%,9%,-1%,-1.0,7
CN1CCc2c(sc3c2c(=O)n(-c2cccc(Cl)c2)c2nncn32)C1,19%,-4,?,-7%,.,.,.
O=C(COc1ccccc1Br)NCc1ccccn1,6%,-10,0.4%,6%,8%,-0.7,-1
O=Cc1ccc(OC(=O)c2cccnc2)cc1,-27%[15.4 µM],-10,.,3%,-6%,-10,-17

Grouped by structure: those above containing a cyano group
SMILES,gsp agonist,CtBP-E1A blk,ClpP mod,gsp antag,Sfp PPTase inh,Menin MLL FP FL,TRPV1 PAM
N#C/C(=C(/O)c1ccc(Cl)cc1)c1nc2ccccc2[nH]1,-1%,6,.,3%,13%,2.9,24
N#CCC(=O)NC1CCC(CC2CCC(NC(=O)CC#N)CC2)CC1 (configuration not stated),-1%,-1,-2.4%,6%,-5%,4.5,-10

(further entries)
SMILES,gsp agonist,CtBP-E1A blk,ClpP mod,gsp antag,Sfp PPTase inh,Menin MLL FP FL,TRPV1 PAM
CCN(c1ccc(NC(=O)c2ccc(N3CCCC3=O)cc2)cc1)C(C)C,?,-2,1.0%,-1%,.,.,-22
Cc1ccc2c(NC(=S)NC(=O)c3ccccc3)cccc2n1,?,-23,-2.1%,-10%,56µM*,.,-12
COCCn1c(SCC(=O)Nc2nnc(C)s2)nnc1-c1ccncc1,-5%,8,-0.1%,-4%,7%,2.7,2
CCOC(=O)[C@H]1[C@H]2COc3ccc(Cl)cc3[C@@H]2N2C(=O)c3ccccc3NC(=O)[C@@]12C,.,0,1.0%,-11%,.,.,1
CC(/C=N/NC(=O)c1nnn(-c2nonc2N)c1CN1CCCCC1)c1ccccc1 (configuration not stated),19%,0,1.5%,-16%,.,.,.
CCCc1nc2oc3c(OCC)ncnc3c2c2c1COC(C)(C)C2,-13%,6,-2.5%,10%,8%,2.3,-3
CCOC(=O)N1CCN(C(c2cccnc2)c2ccc3cccnc3c2O)CC1 (configuration not stated),4%,-92*,-0.8%,-13%,20µM*,0.1,0
NC(=O)CSc1ncnc2c1nnn2Cc1ccc(F)cc1,1%[15.4 µM],6,6.8%,-5%,2%,-1.4,-5
O=C1CCCCC/C1=N/Nc1ccc(OCc2ccccc2)cc1,-6%,.,1.9%,0%,-9%,-0.4,1
CC(OC(=O)c1ccccc1NCc1ccco1)C(=O)Nc1ncc(Cl)cc1Cl (configuration not stated),-1%,7,32µM*,-13%,-15%,-3.8,5
CCN(C1CCCCC1)S(=O)(=O)c1ccc(OC)c(C)c1,3%,29,-3.4%,-9%,-9%,-0.6,6
Cc1cc(-c2ccc(NC(=O)[C@@H]3CCCC[C@@H]3C(=O)O)c(C)c2)ccc1NC(=O)[C@@H]1CCCC[C@@H]1C(=O)O,10%[15.4 µM],2,.,-6%,12%,0.5,6
CS(=O)(=O)c1ccc(C(=O)Nc2ccc(N3CCCCC3)cc2)c(Cl)c1,4%[15.4 µM],-6,.,15%,2%,2.9,-5
Cc1cc(C)nc(NC2=NC3CCCCC3N2)n1 (configuration not stated),14%,-2,-2.6%,-7%,18%,0.8,-13
COc1cc(/C=C2/SC(=S)N(CC(=O)O)C2=O)ccc1OC(=O)c1ccco1,5%,-15,.,4%,-16%,?,-5
CN(c1ccccc1)S(=O)(=O)c1cccc(NC(=O)c2ccc(Cl)c([N+](=O)[O-])c2)c1,4%,-6,-2.5%,-32%,.,.,.
O=C(Nc1ccccn1)C1CCN(S(=O)(=O)c2cccc3nonc23)CC1,3%,-1,-1.1%,5%,19%,-2.0,1
CCCN1CCN(S(=O)(=O)c2ccc3c(c2)NC(=O)C(C)S3)CC1 (configuration not stated),11%,3,0.2%,12%,6%,.,-12
Nc1nc(NCC2CCCO2)nc(Nc2ccc(F)cc2)c1[N+](=O)[O-] (configuration not stated),-71%[inhibitor],11,1.9%,19%,10%,.,-7
CCc1ccccc1N(CC(=O)NCc1ccco1)C(=O)CCC(=O)Nc1ccccn1,12%,-1,.,4%,6%,.,3
CC1CCN(CC(=O)NCCc2ccc(F)cc2)CC1,0%[15.4 µM],2,-0.8%,17%,-24%,-5.6,-2
CCN(CC(=O)Nc1c(F)cccc1F)C(=O)CNC(=O)c1cccc(C)c1,-22%,7,.,1%,12%,0.9,6
Cc1cccc(CN2C(=O)c3ccccc3S(=O)(=O)c3ccc(C(=O)NCCCN4CCCC4)cc32)c1,25%,.,0.9%,6%,0%,.,7
Nc1c(C(=O)NCc2ccccc2)nnn1Cc1ccc(F)cc1,-10%,7,-1.2%,12%,5%,2.2,2
Cc1cccc(-n2c(SCc3ccc(C#N)cc3)nnc2-c2c[nH]c3ccccc23)c1,?,-3,3.0%,-18%,11%,3.1,-11
Cc1ccc(S(=O)(=O)N2CCN(C(=O)c3cc4c(s3)CCC(C)C4)CC2)cc1 (configuration not stated),-8%,-25,-2.6%,7%,.,.,-6
c1ccc(-c2nc(-c3ccccn3)no2)cc1,14%,-25,-1.5%,3%,-6%,3.6,1
O=C(Nc1cccc(Cl)c1)N1CCN(C2c3ccccc3-c3ccccc32)CC1,-22%,-13,.,-11%,23%,2.0,15
COc1ccccc1C(=O)NCCN=C1NS(=O)(=O)c2ccccc21,3%,6,.,1%,17%,-4.3,-1
C=C1CC2C(=O)N(Cc3cc(OC)ccc3OC)C(C(=O)OCC)(C(=O)OCC)C1N2C(=O)OC(C)(C)C (configuration not stated),20%,.,-0.5%,-3%,7%,-0.5,.
O=C(NC(C(=O)N/N=C/c1cccnc1)c1n[nH]c(=O)c2ccccc12)c1ccccc1 (configuration not stated),27%[15.4 µM],5,.,3%,0%,4.3,16
Cc1ccc(-c2csc3nc(=O)c(C)nn23)cc1,-15%,19,0.7%,9%,-14%,3.2,6
O=C(c1ccc(F)cc1)C1CCN(C(=O)c2ccncc2)CC1,-60%[inhibitor],2,-2.3%,8%,18%,1.6,3
CCOC(=O)CCc1c(C)c2ccc(OCC(=O)N3CCOCC3)c(C)c2oc1=O,-25%,7,10µM*,-17%,9%,-3.2,0
O=C(COc1ccc(-n2cnnn2)cc1)Nc1ccccc1OC(F)F,-40%[inhibitor],12,2.4%,10%,.,.,-1
O=C(Nc1cccc2ncccc12)c1ccc(-c2ccc(Br)cc2)o1,?,-7,-5.1%,-12%,-1%,6.3,-18
CC(C)(C)c1ccc(C(=O)NC(=S)NNC(=O)COc2ccccc2)cc1,-6%,2,-0.9%,-12%,-19%,.,-18
COCCOC(=O)c1c(NC(=O)CNC2CCCc3ccccc32)sc(C(N)=O)c1C (configuration not stated),18%[15.4 µM],1,.,-17%,4%,1.3,-13
NC(=O)c1ccc2nc(NC(=O)c3ccc(N)cc3)sc2c1,20%,17,.,5%,26%,3.8,1
CCN(C(=O)COC(=O)Cn1c(=O)oc2ccccc21)c1c(N)n(Cc2ccccc2)c(=O)[nH]c1=O,12%,2,1.7%,-7%,.,.,.
